Screening data from PubChem.
LASV entry inh: qHTS for Inhibitors of binding or entry into cells for Lassa Virus; 300,000 compounds, 1.2% hits; AID 540256, 2011; Lassa virus pseudotype entry inhibition, cell reporter; control for the full effect not named in the record; Potency, µM (titrated, usually from 37.9 µM), without a hit: at the top dose activity change, negative = inhibition, actives largely listed as inhibitors; active means well fitted inhibition curve with a large enough effect; inconclusive means small, poorly fitted or top-dose-only effect, or effect the other way; inactive means flat fitted curve, though single readings scatter; tested in HEK293 cells; note: % is set by controls: 0 for no effect and ±100 for the full control effect; nearly all actives have a fitted effect of over 50% in size; luciferase read-out
MARV entry inh: qHTS for inhibitors of binding or entry into cells for Marburg Virus; Marburg virus pseudotyped entry inhibition, cell reporter; control for the full effect not named in the record; about a third of the inactives were read at about 46 µM; Potency, µM (top dose mostly 37.8 µM), for inactives: at the top dose activity change, negative = inhibition, most hits filed as inhibitors; 300,000 compounds, 1.8% hits; AID 540276, 2011; active = well fitted inhibition curve with a large enough effect; inconclusive = small, poorly fitted or top-dose-only effect, or effect the other way; inactive = flat fitted curve, though single readings scatter; tested in HEK293 cells; about a fifth of its hits are not listed in these tables; note: % is set by controls: 0 for no effect and ±100 for the full control effect; luciferase read-out
NS1 function inh: qHTS Assay for Inhibitors of Influenza NS1 Protein Function | S. cerevisiae slowed by influenza A NS1, growth recovery by OD600 | Potency, µM (series often up to 46.1 µM), without a hit: at the highest dose activity, positive = more growth | 270,000 compounds, 0.4% hits; active means well fitted rising curve with a large enough effect; inconclusive means small, poorly fitted or top-dose-only effect; inactive means no such curve, though single readings can be large or run the other way; note: nearly all actives have a fitted effect of over 50% in size
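In this qHTS, NS1 from influenza A is expressed in budding yeast, where it slows growth. Cells are switched from glucose to 2% galactose medium (pH 6.0, -URA), treated with compound, and growth recovery is read at OD600.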
SARS PLP yeast: qHTS of Yeast-based Assay for SARS-CoV PLP. S. cerevisiae expressing SARS-CoV PLpro, growth rescue; control for the full effect not named in the record. Potency, µM (titrated, usually from 32.9 µM), without a hit: at the top dose activity, positive = growth rescue. 330,000 compounds, 0.19% hits; active means well fitted rising curve with a large enough effect; inconclusive means small, poorly fitted or top-dose-only effect; inactive means no such curve, though single readings can be large or run the other way; note: 0% is about no effect; nearly all actives have a fitted effect of over 55% in size; growth read by luminescence after 48 h
Cruzain noTriton: qHTS Assay for Promiscuous and Specific Inhibitors of Cruzain (without detergent); purified cruzain, Z-FR-AMC fluorescence, no detergent; Cruzipain (Trypanosoma cruzi), P25779; Potency, µM, for the others: max response, negative = inhibition, actives largely listed as inhibitors; 200,000 compounds, 2.3% hits; AID 1476, 2009;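 note: plate controls were enzyme without inhibitor for no effect and buffer without enzyme for full effect; nearly all actives have a fitted effect of over 40% in size; top concentration of the series not given in the record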
Target sequence (P25779 123-467 limits assumed): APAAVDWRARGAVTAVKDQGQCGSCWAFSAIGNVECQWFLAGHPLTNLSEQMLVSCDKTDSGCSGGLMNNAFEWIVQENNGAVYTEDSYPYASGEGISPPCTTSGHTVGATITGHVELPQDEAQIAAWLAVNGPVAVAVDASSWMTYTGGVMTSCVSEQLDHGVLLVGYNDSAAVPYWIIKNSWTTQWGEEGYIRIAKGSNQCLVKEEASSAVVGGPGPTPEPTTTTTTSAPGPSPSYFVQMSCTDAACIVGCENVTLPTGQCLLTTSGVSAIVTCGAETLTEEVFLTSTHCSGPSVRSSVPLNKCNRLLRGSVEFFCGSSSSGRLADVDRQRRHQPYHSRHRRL
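Detergent-free condition (0.00005% Triton X-100) in acetate buffer pH 5.5 with DTT. 1.5 nM enzyme and compound were pre-mixed 15 min, then 2 uM Z-FR-AMC substrate added; reaction progress from fluorescence change between first and third reads (60 s).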
2A StopGo: High Throughput Screening for Foot and Mouth Disease Virus Antivirals; human cells with a luciferase reporter of 2A StopGo recoding; control for the full effect not named in the record; Potency, µM (titrated, usually from 57.9 µM), inactives show top-dose signal change, negative = less light; 410,000 compounds, 1.2% hits; AID 1159524, 2015; active = well fitted falling curve with a large enough effect; inconclusive = small, poorly fitted or top-dose-only effect; inactive = no such curve, though single readings can be large or run the other way; tested in HEK293T cells; note: % is set by controls: 0 for no effect and ±100 for the full control effect; nearly all actives have a fitted effect of over 45% in size; luciferase light after 4 h
RE007 growth inh: qHTS Assay for Inhibitors of the HIV-1 protein Vpr | S. pombe RE007 Vpr strain, BacTiter-Glo ATP luminescence, 24 h; control for the full effect not named in the record | Potency, µM (highest dose often 92.2 µM), without a hit: at the highest dose activity change, negative = less growth | 360,000 compounds, 0.21% hits | AID 651644, 2012; active = well fitted falling curve with a large enough effect; inconclusive = small, poorly fitted or top-dose-only effect; inactive = no such curve, though single readings can be large or run the other way;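 note: % is set by controls: 0 for no effect and ±100 for the full control effect; nearly all actives have a fitted effect of over 50% in size; the assay follows cell death caused by Vpr and the record does not say whether a fall means rescue or toxicity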
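Fission yeast strain RE007, carrying one chromosomally integrated HIV-1 vpr copy, was seeded at OD 0.01 in PMG+AL medium with 23 nL pinned compound. After 24 h at 30 °C and 99% humidity, viability was read by BacTiter-Glo luminescence.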
Cruzain inh Det: qHTS Assay for Promiscuous and Specific Inhibitors of Cruzain (with detergent); Cruzipain (Trypanosoma cruzi), P25779; purified cruzain, Z-FR-AMC fluorescence, 0.01% Triton; Potency, µM, without a hit: max response, negative = inhibition, most hits filed as inhibitors; 200,000 compounds, 0.43% hits; AID 1478, 2009;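 note: plate controls were neutral wells for no effect and buffer without enzyme for full effect; nearly all actives have a fitted effect of over 40% in size; top concentration of the series not given in the record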
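Sodium acetate buffer (100 mM, pH 5.5) containing 5 mM DTT and 0.01% Triton X-100 hosted 1.5 nM cruzain and test compound for 15 min at room temperature. Cleavage of 2 uM Z-FR-AMC was then tracked by fluorescence.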
Starred values were filed as active, the others as inactive; ? = inconclusive; nt = not tested or not shown; & = joins results of further samples; ! = not confirmed by another sample; [ ] = dose if it differs, or a comment. Unless noted, calls come from the whole dose curve; as a rule, active = well fitted curve in the direction sought with a large enough effect; inconclusive = small, poorly fitted or top-dose-only effect, or another doubt; inactive = no such curve, though single readings can be large; an effect the other way counts as inactive or inconclusive. Potency is the fitted concentration of half-maximal effect.

SMILES | RE007 growth inh | SARS PLP yeast | 2A StopGo | LASV entry inh | Cruzain inh Det | Cruzain noTriton | NS1 function inh | MARV entry inh
CCCN(CCC)CCCNC(=O)Cn1ncc2c3ccccc3n(Cc3ccccc3F)c2c1=O | nt | nt | -24% | ? | -3.5% | -13% | nt | ?
c1ccc2c(c1)CCN(c1nc(CN3CCOCC3)nc3sc4c(c13)CCCC4)C2 | 9% | -1% | ? | -2% | -7.1% | 5% | -61% | -31%
CCCCNC(=O)CSc1nnc(C)c2c(C)n(-c3ccccc3)nc12 | nt | nt | -10% | -2%[46.1 µM] | -4.2% | 1% | nt | nt
COc1ccccc1CNC(=O)COC(=O)Cc1ccc(Br)cc1 | 3% | -6% | 0% | 1% | nt | nt | nt | ?
CCn1nc(C)c2c(-c3ccccc3)cc(=O)n(C(C)C(=O)NCCC(C)C)c21 (stereo unspecified) | nt | nt | -4% | -34%[46.1 µM] | -8.3% | ? | nt | nt
CC(C)OC(=O)c1cc(-c2ccc(C=O)o2)ccc1Cl | -3% | -27% | -18% | -7% | -13% | 1% | -18% | 0%
C/C(=C1\SC(N2CCOCC2)=NC1=O)c1ccc(C)cc1 | -15% | 2% | -16% | ? | -0.2% | 1% | -53% | -1%
CCS(=O)(=O)NC(C)C(c1cccs1)N1CCN(c2ccc(F)cc2)CC1 (stereo unspecified) | -6% | 1% | ? | nt | -3.1% | 1% | -8% | 6%
Cc1ccc(-c2nc3ncccc3o2)cc1NC(=O)c1ccc([N+](=O)[O-])o1 | -29% | -2% | -19% | 0%[46.1 µM] | nt | nt | -42% | 10%[46.1 µM]
Nc1ccn([C@H]2CC[C@@H](CO)O2)c(=O)n1 | 3% | -5%&-4% | -26% | 7% | 3.4%&3.7%&1.8%&-0.2% | 3%&3%&-5%&-4% | -8%&0% | ?
COC(=O)c1sc2nc3c(c(-c4cccs4)c2c1N)CCCC3 | -5% | 1% | -21% | 8% | -4.5% | -5% | 14% | 23%
COC(=O)CCn1nc(-c2ccc(C)cc2)c2ccccc2c1=O | 4% | 0% | -13% | nt | nt | nt | -31% | -2%[46.1 µM]
Clc1cccc(-n2ncc3c(NC4CCCCCC4)ncnc32)c1 | nt | nt | 20% | 1%[46.1 µM] | 0.2% | -15% | nt | nt
COc1ccc(-c2csc(/C(C#N)=C/Nc3cc4oc5ccccc5c4cc3OC)n2)cc1 | -7% | 2% | 2% | nt | nt | nt | nt | 12%[46.1 µM]
O=c1c2ccsc2ncn1Cc1cccc(C(F)(F)F)c1 | -4% | 8% | -7% | -1% | -11% | 4% | -4% | -20%
COc1ccc(C(=O)O)cc1S(=O)(=O)Nc1cccc(C(F)(F)F)c1 | 7% | 3% | 32%[activator] | 8% | 3.7% | 5% | -2% | -1%
O=C(COC(=O)CSc1ccc([N+](=O)[O-])cc1)NCc1ccco1 | 0% | -2% | 2% | ? | nt | nt | nt | ?
Cc1cc(C)n(CC(=O)N/N=C/c2cccs2)n1 | -4% | -8% | 64%[activator] | ? | 1.5% | 7% | 24% | 9%
O=C(NC1CCCC1)c1ccc(CNc2c(N3CCOCC3)c(=O)c2=O)cc1 | 13% | 0% | -2% | nt | 3.1% | -8% | -2% | nt
O=S(=O)(c1ccc(Br)cc1Cl)N1CCN(CCO)CC1 | -15% | 4% | 13% | 27%[46.1 µM] | nt | nt | nt | -1%[46.1 µM]
CCC(CC)NC(=O)Cn1c(C(C)NC(C)=O)nc2ccccc21 (stereo unspecified) | -5% | 0% | -19% | nt | nt | nt | 8% | nt
CCOC(=O)C1(CCOc2ccccc2)CCN(Cc2ccc(OCCO)cc2)CC1 | 3% | 6% | ? | 10% | nt | nt | -19% | 10%
Cc1ccn(CCC(=O)N2CCc3ccccc32)n1 | -16% | 0% | 25% | nt | nt | nt | -7% | nt
O=C(NC1CCCC1)c1cc(-c2ccccc2Cl)on1 | 0% | -10% | 11% | ? | nt | nt | -29% | ?
COc1cccc(CNC(=O)CCC2CCCN(C(=O)c3ccoc3)C2)c1 (stereo unspecified) | 10% | -1% | 25% | 0%[46.1 µM] | nt | nt | 2% | -2%[46.1 µM]
COC(=O)c1ccccc1NC(=O)CCS(=O)(=O)c1nc(-c2ccc3c(c2)OCO3)cc(C(F)(F)F)n1 | nt | nt | ? | 15%[46.1 µM] | -1.7% | 17% | nt | 16%[46.1 µM]
Cc1cc(-c2ccco2)c(C#N)c2nc3ccccc3n12 | -19% | -8% | 4% | -8% | -3.6% | -21% | -71% | ?
Cc1ccc(C(=O)NNC(=O)c2ccccc2O)cc1S(=O)(=O)N1CCCCC1 | -24% | 3% | 6% | -14%[46.1 µM] | nt | nt | nt | -16%
COC(=O)c1cc2sc(Cl)cc2n1CC(=O)NCCC(C)C | -6% | 4% | 29% | -29% | 3.0% | 25µM* | 7% | ?
Cc1ccc(C)c(NC(=O)C(CC(=O)O)Cc2ccccc2)c1 (stereo unspecified) | 5% | -3% | -2% | 11% | nt | nt | 2% | 23%
O=C(O)c1cc(CN2CCOCC2)oc1-c1ccccc1 | 16% | -5% | -1% | -2% | 1.8% | -15% | ? | ?
Cc1ccc(C)c(-c2cc(C(=O)N/N=C/c3cccnc3)c3ccccc3n2)c1 | 5% | -2% | -12% | ? | nt | nt | -7% | -1%[46.1 µM]
Cc1ccc(C2(c3ccccc3)NC(=O)N(CC(=O)NC3CCCCC3)C2=O)cc1C (stereo unspecified) | 3% | 0% | -12% | ? | nt | nt | nt | -14%
CCCCCn1c(=O)[nH]c2cc(C(=O)N3CCN(c4cccc(C)c4)C(C)C3)ccc2c1=O (stereo unspecified) | nt | nt | 16µM* | ? | -3.2% | -1% | nt | ?
O=S(=O)(NCc1ccc(F)cc1)c1ccc(N2CCCCS2(=O)=O)cc1 | nt | nt | -11% | -16%[46.1 µM] | -1.1% | -2% | nt | nt
COc1ccc(-n2c(SCC(=O)Nc3ccccc3)nnc2-c2ccc(NS(=O)(=O)c3ccc(C)cc3)cc2)cc1 | 20% | 4% | -19% | ? | 2.7% | ? | 5% | ?
O=C(CC(NC(=O)OCc1ccccc1)C(=O)OCc1ccccc1)OCc1ccccc1 (stereo unspecified) | 1% | nt | -16% | -27% | nt | nt | nt | 12%
CCC(Sc1nc2c(sc3ccccc32)c(=O)n1CCc1ccccc1)C(=O)N(CC)CC (stereo unspecified) | nt | nt | 8% | ? | 2.3% | 11% | nt | nt
CCN(CC)S(=O)(=O)c1ccc2[nH]cc(C(=O)NC3CC3)c(=O)c2c1 | -10% | -1% | -1% | nt | nt | nt | 3% | nt
c1ccc(NC2=NCCN2CC2CCCC2)cc1 | -5% | -3% | -14% | nt | nt | nt | 2% | nt
CN(C)c1ccc(CNC(=O)CCS(=O)(=O)c2ccc3c(c2)n(C)c(=O)c(=O)n3C)cc1 | -12% | 4% | -23% | nt | nt | nt | -22% | nt
CCN(CC)c1ccc(NC(=O)CN2CCN(c3ccccc3OC)CC2)cc1 | nt | nt | -25% | -29%[46.1 µM] | 0.1% | 7% | nt | nt
COCCN(CCOC)Cc1c(C)[nH]c2c(C)c(C)ccc2c1=O | 12% | 2% | nt | ? | 1.4% | -4% | 3% | -2%
Cc1ccc(-n2c(COc3cccc(C)c3)n[nH]c2=S)cc1 | 1% | 1% | 1% | nt | nt | nt | -2% | nt
CCN(CC)S(=O)(=O)c1cccc(-c2nnc(SCCCC(=O)c3ccc(F)cc3)o2)c1 | 2%[3.69 µM] | 0% | ? | ? | -2.6% | -2% | 1% | 21µM*!
CCOC(=O)c1c[nH]c2ccc3ccccc3c2c1=O | 7% | ? | 7% | nt | nt | nt | -17% | nt
Cc1ccc(/C=N/NC(=O)c2ccccc2OCc2cccc(Br)c2)o1 | 2% | -15% | ? | -8% | nt | nt | 0% | ?
CCn1c(=O)cc(SCC(=O)Nc2ccc(OC)c(OC)c2)c2ccccc21 | -2% | 6% | ? | -15% | -6.6% | ? | 1% | ?
O=C(CCC(=O)N/N=C/c1c[nH]c2ccccc12)NCc1ccccc1 | 9% | 1% | -14% | 10% | -4.2% | 0% | 9% | ?

Filtered by structure: those above with an aryl methoxy group (seven)
SMILES | RE007 growth inh | SARS PLP yeast | 2A StopGo | LASV entry inh | Cruzain inh Det | Cruzain noTriton | NS1 function inh | MARV entry inh
COc1ccccc1CNC(=O)COC(=O)Cc1ccc(Br)cc1 | 3% | -6% | 0% | 1% | nt | nt | nt | ?
COc1ccc(-c2csc(/C(C#N)=C/Nc3cc4oc5ccccc5c4cc3OC)n2)cc1 | -7% | 2% | 2% | nt | nt | nt | nt | 12%[46.1 µM]
COc1ccc(C(=O)O)cc1S(=O)(=O)Nc1cccc(C(F)(F)F)c1 | 7% | 3% | 32%[activator] | 8% | 3.7% | 5% | -2% | -1%
COc1cccc(CNC(=O)CCC2CCCN(C(=O)c3ccoc3)C2)c1 (stereo unspecified) | 10% | -1% | 25% | 0%[46.1 µM] | nt | nt | 2% | -2%[46.1 µM]
COc1ccc(-n2c(SCC(=O)Nc3ccccc3)nnc2-c2ccc(NS(=O)(=O)c3ccc(C)cc3)cc2)cc1 | 20% | 4% | -19% | ? | 2.7% | ? | 5% | ?
CCN(CC)c1ccc(NC(=O)CN2CCN(c3ccccc3OC)CC2)cc1 | nt | nt | -25% | -29%[46.1 µM] | 0.1% | 7% | nt | nt
CCn1c(=O)cc(SCC(=O)Nc2ccc(OC)c(OC)c2)c2ccccc21 | -2% | 6% | ? | -15% | -6.6% | ? | 1% | ?
